TRPV1 potentiator: human TRPV1 potentiation | TRPV1-expressing cells, Fluo-8 calcium influx, capsaicin EC20 potentiation; host cell line not named in the record; control for the full effect not named in the record | potentiation, % at 8.33 µM | 320,000 tested, 0.02% active | AID 540277; active means potentiation above 80%; inconclusive means 30% to 80%; inactive means below 30%; note: 0% is about no effect
Target sequence (Q8NER1 whole entry, looked up): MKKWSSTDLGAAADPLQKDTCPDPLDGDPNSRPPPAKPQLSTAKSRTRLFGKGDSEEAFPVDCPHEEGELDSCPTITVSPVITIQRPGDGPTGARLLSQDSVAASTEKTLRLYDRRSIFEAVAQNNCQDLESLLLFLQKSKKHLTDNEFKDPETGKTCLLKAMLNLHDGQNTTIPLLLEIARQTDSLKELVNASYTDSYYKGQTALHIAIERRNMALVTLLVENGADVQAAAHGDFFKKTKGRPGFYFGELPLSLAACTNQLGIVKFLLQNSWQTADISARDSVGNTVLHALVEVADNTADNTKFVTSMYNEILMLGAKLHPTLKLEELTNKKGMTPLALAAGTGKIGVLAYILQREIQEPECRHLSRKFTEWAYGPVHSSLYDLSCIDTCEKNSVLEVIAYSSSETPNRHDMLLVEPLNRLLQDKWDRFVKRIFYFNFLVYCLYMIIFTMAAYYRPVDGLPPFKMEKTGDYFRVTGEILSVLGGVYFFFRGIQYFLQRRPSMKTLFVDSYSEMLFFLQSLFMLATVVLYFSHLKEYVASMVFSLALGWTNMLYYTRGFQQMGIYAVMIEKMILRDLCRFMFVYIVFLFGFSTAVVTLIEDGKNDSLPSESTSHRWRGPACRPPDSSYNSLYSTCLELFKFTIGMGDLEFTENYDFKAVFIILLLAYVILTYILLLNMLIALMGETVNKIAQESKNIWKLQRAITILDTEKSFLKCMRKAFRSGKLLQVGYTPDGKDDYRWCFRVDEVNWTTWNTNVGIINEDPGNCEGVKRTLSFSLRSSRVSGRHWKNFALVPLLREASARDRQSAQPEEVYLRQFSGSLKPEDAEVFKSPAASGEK
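TRPV1-expressing cells were cultured overnight at 35.5C and loaded with Fluo-8 calcium dye for 40 to 90 min at room temperature. After a 10 s baseline, compound was added and calcium influx was read kinetically for 3 min (ex 480/em 520 nm).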
gsp agonist: activates gsp, the McCune-Albright syndrome mutation | gsp mutant cells, cAMP HTRF, 30 min; control for the full effect not named in the record | Potency, µM (top dose mostly 76.9 µM), inactives show top-dose activation (cAMP increase), actives largely listed as activators | 340,000 tested, 0.13% active; active = well fitted activation curve with a large enough effect; inconclusive = small, poorly fitted or top-dose-only effect, or another doubt; inactive = no such curve, though single readings can be large or run the other way; cell line not stated here;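 note: phosphodiesterase inhibitor Ro 20-1724 added with compounds to block cAMP breakdown; potency is the fitted concentration of half-maximal effect; nearly all actives have a fitted effect of over 60% in size; about a fifth of the inactives were tested at one dose only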
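Cells in DMEM/10% FBS with G418 were pretreated with compounds in DMSO plus […] (300 uM stock) for 30 min at 37C. cAMP was measured by HTRF (cAMP-d2 plus anti-cAMP antibody-K) after 30 min at room temperature.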
TRPML1 inh: human mucolipin-1 channel inhibition; Q9GZU1; TRPML1-inducible cells, Ca2+ dye fluorescence, FDSS; hits give low values; inhibition of EC80 agonist-evoked calcium signal; activity change, negative = inhibition, % (test concentration not listed); 390,000 tested, 0.02% active; in the data active means activity change below about -50%; inconclusive means about -30% to -50%; inactive means above about -30%;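 note: stimulus is agonist 54-4 at its EC80 concentration; % is set by controls: 0 for no effect and ±100 for the full control effect; compound concentration not given in the record; the text of the record puts the active cut at -80%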
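Calcium fluorescence in TRPML1-DL cells induced overnight with Tet: a 110 s read after compound pin addition, then a 110 s antagonist read after challenge with 54-4 at 4 uM final (EC80).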
gsp antag: antagonists of gsp mutant (McCune-Albright syndrome); 340,000 tested, 0.4% active; Potency, µM (titrated, usually from 76.9 µM), for the others: at the top dose activity change, negative = inhibition, actives largely listed as inhibitors; gsp-mutant cells, cAMP HTRF, 30 min; control for the full effect not named in the record; active = falling curve of any shape with a large fitted effect; inconclusive = falling curve, mostly with a smaller effect; inactive = flat or rising curve; cell line not stated here;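 note: intracellular cAMP measured with PDE inhibitor Ro 20-1724 present during compound exposure; potency is the fitted concentration of half-maximal effect; % is set by controls: 0 for no effect and ±100 for the full control effect; nearly all actives have a fitted effect of over 65% in size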
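Cells in G418 medium, seeded 16-24 h, 37C; buffer exchange to DPBS + 1 mM CaCl2, 0.5 mM MgCl2, 0.05% BSA; cpds in DMSO + […] (300 uM stock), 30 min 37C; HTRF cAMP detection.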
Menin MLL FP FL: inhibitors of human menin-MLL interaction, wild-type MLL peptide; Fluorescence polarization, fluorescein-MLL peptide displacement from menin; FP activity change, % at 61.4 µM; 290,000 tested, under 10 active; AID 1766; inconclusive = falling polarisation curve, or a change in total fluorescence; inactive = total fluorescence flat and polarisation flat or rising; no compound was filed as active; the % refers to the polarisation; negative = inhibition;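 note: % of control where 0% means no effect; inhibitors lower the polarisation; unlabelled MLL peptide was the positive control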
ClpP mod: qHTS Assay for Activators of ClpP. ATP-dependent Clp protease proteolytic subunit (Bacillus subtilis (strain 168)), P80244. purified B. subtilis ClpP, FRET peptide cleavage, 20 min. Potency, µM (series often up to 57.5 µM), for inactives: at the top dose activity change, negative = active. 340,000 tested, 1.9% active. AID 651965, 2013; active = well fitted falling curve with a large enough effect; inconclusive = small, poorly fitted or top-dose-only effect; inactive = no such curve, though single readings can be large or run the other way; note: potency is the fitted concentration of half-maximal effect; the source files actives as falling curves though it sought activators and does not explain the sign; nearly all actives have a fitted effect of over 65% in size; many hits overshoot -100%
Target sequence (P80244 whole entry, looked up): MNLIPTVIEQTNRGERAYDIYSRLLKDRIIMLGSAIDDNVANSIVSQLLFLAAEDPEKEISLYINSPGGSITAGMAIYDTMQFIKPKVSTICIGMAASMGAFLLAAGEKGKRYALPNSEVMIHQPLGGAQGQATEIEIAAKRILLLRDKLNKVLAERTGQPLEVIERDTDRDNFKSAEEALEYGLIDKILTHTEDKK
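Purified B. subtilis ClpP, 10 microg/mL final in Tris/HCl pH8 with KCl, BSA, glycerol and Tween-20, cleaved an Abz/nitrotyrosine-quenched decapeptide. Fluorescence (ex 320, em 430) was read at 0 and 20 min at room temperature. Delta was normalized to 5.8 microM ADEP and DMSO/no-enzyme controls.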
Sfp PPTase inh: inhibitors of Bacillus subtilis Sfp phosphopantetheinyl transferase; Biochemical Sfp PPTase activity, qHTS; Potency, µM, for inactives: max response, negative = inhibition, hits mostly inhibitors; 310,000 tested, 3.5% active; active = well fitted inhibition curve with a large enough effect; inconclusive = small, poorly fitted or top-dose-only effect, or another doubt; inactive = no such curve, though single readings can be large or run the other way;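 note: the enzyme is Sfp with the accession as filed and its product quenches rhodamine fluorescence; potency is the fitted concentration of half-maximal effect; 0% = enzyme reaction without inhibitor and -100% = no enzyme wells; top concentration of the series not given in the record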
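Fluorescence-quenching assay: 15 nM Sfp-PPTase preincubated 15 min at room temperature with compound, then 5 uM rhodamine-CoA and 12.5 uM BHQ-2-labelled YbbR peptide added. Fluorescence (ex 525/em 598 nm) read at start and after 30 min; difference gives rate.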
* marks the source's active call; other numbers are inactive results; [ ] = another dose, or the depositor's remark. Rows were taken by chance. Share with any hit: about 4.9%.

O=C(Cc1cccc(NC(=O)C2CCCN(C(=O)C3CCCC3)C2)c1)Nc1ccc(C(=O)N2CCOCC2)cc1 (stereo not given) was read as TRPML1 inh -7, gsp antag 7% and ClpP mod 0.2%.
For COc1cc(C(=O)NC(C)c2ccc(-n3ccnc3)cc2)cc(OC)c1C (stereo not given) the results were TRPV1 potentiator 22, gsp agonist 25%[15.4 µM], TRPML1 inh 53, Menin MLL FP FL -3.4 and Sfp PPTase inh 5%.
CC1CCN(S(=O)(=O)c2ccc(S(=O)(=O)NCC3COCCO3)cc2)CC1 (stereo not given) was read as TRPV1 potentiator -3, gsp agonist 0%, TRPML1 inh 7, gsp antag 15%, Menin MLL FP FL 3.4, ClpP mod 0.0% and Sfp PPTase inh 6%.
COc1ccc(S(=O)CC(=O)Nc2ccc(Cl)cc2Cl)cc1 (stereo not given) was read as TRPV1 potentiator 7, gsp agonist 0%[15.4 µM], TRPML1 inh 5, gsp antag 1%, Menin MLL FP FL -1.0 and Sfp PPTase inh 22%.
CCS(=O)(=O)c1ccc2oc(SCC(=O)NCCc3ccccc3)nc2c1 was read as TRPV1 potentiator 16, gsp agonist -10%[15.4 µM], TRPML1 inh -8, gsp antag -4%, Menin MLL FP FL -6.4 and Sfp PPTase inh 5%.
Screening CC(CCN1C(Nc2ccccc2)=NC[C@@H]1C)c1ccccc1 (stereo not given in full) returned TRPV1 potentiator -26, gsp agonist 2%, TRPML1 inh -15, gsp antag 7%, Menin MLL FP FL -0.9, ClpP mod 1.7% and Sfp PPTase inh 11%.
For COc1cccc(N(CC(=O)NC2CCCC2)C(=O)Cn2nnc(-c3ccc(C)cc3)n2)c1 the results were TRPV1 potentiator -3, gsp agonist 5%, TRPML1 inh 3, gsp antag -21%, Menin MLL FP FL 5.4, ClpP mod 0.2% and Sfp PPTase inh 4%.
`Cc1ccc(C(=O)OCC(=O)Nc2cc(S(C)(=O)=O)ccc2Cl)cc1S(=O)(=O)N1CCCCC1` gave TRPV1 potentiator -5, gsp agonist 0%, TRPML1 inh -16, gsp antag -23%, Menin MLL FP FL -0.2, ClpP mod 0.8% and Sfp PPTase inh 8%.
For Nc1nnc(CCC2CCCCC2)s1 the results were TRPV1 potentiator inconclusive, gsp agonist -20%, TRPML1 inh 47, gsp antag 17%, Menin MLL FP FL 2.2, ClpP mod inconclusive and Sfp PPTase inh 14%.
For O=C1CCCCCN1CP(=O)(O)CN1CCCCCC1=O the results were TRPV1 potentiator 3, gsp agonist 8%[15.4 µM], TRPML1 inh -9, gsp antag -2%, Menin MLL FP FL 6.4, ClpP mod -0.4% and Sfp PPTase inh 20%.
`O=C(c1ccc(C(F)(F)F)cc1)N1CCC(=O)N([C@H](COCc2ccc(Cl)cc2)Cc2ccccc2)CC1` gave Menin MLL FP FL -2.3, ClpP mod 3.3% and Sfp PPTase inh -22%.
`CCC(C(=O)NCCN1CCN(C)CC1)n1c(C)c2cnn(-c3ccccc3)c(=O)c2c1C` (stereo not given) gave TRPV1 potentiator -15, gsp agonist -18%, TRPML1 inh 0, gsp antag 7%, Menin MLL FP FL 1.3, ClpP mod -1.4% and Sfp PPTase inh 1%.
Screening O=C(CN1CCCC1)Nc1c(Cl)cccc1Cl returned TRPV1 potentiator 13, gsp agonist inconclusive, TRPML1 inh -4, gsp antag 21%, Menin MLL FP FL 0.5 and Sfp PPTase inh 5%.
For O=C(COC(=O)c1cc([N+](=O)[O-])ccc1NCc1ccccc1Cl)NCC(F)(F)F the results were TRPV1 potentiator 11, gsp agonist 9%[15.4 µM], TRPML1 inh 12, gsp antag -18%, Menin MLL FP FL 3.1, ClpP mod -1.7% and Sfp PPTase inh -2%.
CN(C)CCNC(=O)c1cccc2nc3c(ccc4ccccc43)nc12 was read as gsp agonist 4%, TRPML1 inh 32, gsp antag -22% and ClpP mod -26%.
Screening Fc1ccc(CN2C3=NCCN3c3ccccc32)cc1 returned TRPV1 potentiator -12, gsp agonist -14%[15.4 µM], TRPML1 inh -4, gsp antag -16%, Menin MLL FP FL 0.9 and Sfp PPTase inh 3%.
For Cc1cccc(NC(=O)COc2ccc(Br)cc2/C=N/O)c1 the results were TRPV1 potentiator 4, gsp agonist 2%, TRPML1 inh -5, gsp antag -13%, Menin MLL FP FL 2.7, ClpP mod -1.5% and Sfp PPTase inh inconclusive.
CCOC(=O)N1CCN(C(=O)COc2ccccc2OC)CC1 was read as TRPV1 potentiator -6, gsp agonist -54%[inhibitor], TRPML1 inh 9, gsp antag -3%, Menin MLL FP FL 3.3, ClpP mod -1.1% and Sfp PPTase inh 10%.
`CCOc1ccc(NC(=O)C2CC=CCC2C(=O)O)cc1` (stereo not given) gave TRPV1 potentiator 3, gsp agonist 11%, TRPML1 inh -11, gsp antag 0%, Menin MLL FP FL 0.0, ClpP mod 1.4% and Sfp PPTase inh 20%.
For COc1ccc(Cn2cc(CN3CCS(=O)(=O)N(Cc4ccc(-c5cccc(Cl)c5)cc4)C(C)C3=O)nn2)cc1 (stereo not given) the results were TRPML1 inh 3, gsp antag 1% and ClpP mod -8.3%.
For COc1ccc(-n2c(Cc3cccn3C)nnc2SCC(=O)Nc2cccc(C)c2C)cc1 the results were TRPV1 potentiator 1, gsp agonist inconclusive, TRPML1 inh 20, gsp antag -13%, Menin MLL FP FL 2.4, ClpP mod 1.5% and Sfp PPTase inh -10%.
For O=c1c2cc(N3CCOCC3)ccc2[nH]c(=S)n1CCCN1CCCC1 the results were TRPV1 potentiator 8, gsp agonist 14%, TRPML1 inh 8, gsp antag -3%, Menin MLL FP FL 0.4, ClpP mod -1.0% and Sfp PPTase inh 4%.
For CCOC(=O)c1[nH]c(CSc2nnc(-c3ccc(OC)cc3)o2)c(C(=O)OCC)c1C the results were TRPV1 potentiator -3, gsp agonist -20%, TRPML1 inh 11, gsp antag -4%, Menin MLL FP FL 5.0, ClpP mod 3.3% and Sfp PPTase inh inconclusive.
`COc1cccc(COc2cc3ccccc3nc2C)c1` gave TRPV1 potentiator -2, gsp agonist -3%, TRPML1 inh 16, gsp antag -12%, Menin MLL FP FL 4.6, ClpP mod -3.5% and Sfp PPTase inh inconclusive.
For N#Cc1c2ccccc2nc2ccccc12 the results were TRPV1 potentiator 5, gsp agonist 32%, TRPML1 inh 0, gsp antag 5%, Menin MLL FP FL -0.5, ClpP mod inconclusive and Sfp PPTase inh 17%.
For O=C(Nc1c2c(nn1-c1ccc(F)cc1)CS(=O)C2)c1ccco1 (stereo not given) the results were TRPV1 potentiator -3, gsp agonist inconclusive, TRPML1 inh -15, gsp antag 18%, ClpP mod 3.4% and Sfp PPTase inh 3%.
CC(CC(=O)O)CC(=O)Nc1cc(C(F)(F)F)cc(C(F)(F)F)c1 (stereo not given) was read as TRPV1 potentiator -12, gsp agonist 15%[15.4 µM], TRPML1 inh -7, gsp antag 10%, Menin MLL FP FL -4.5 and Sfp PPTase inh 15%.
For O=C(O)c1ccc(CSc2nnc(Cc3ccccc3)o2)cc1 the results were TRPV1 potentiator 2, gsp agonist inconclusive, TRPML1 inh 1, gsp antag -26%, Menin MLL FP FL 3.5, ClpP mod -1.4% and Sfp PPTase inh 25%.
For Cc1nc(-c2ccccc2)cn2c1nc1ccccc12 the results were TRPV1 potentiator -18, gsp agonist 27%, TRPML1 inh 1, gsp antag 1%, Menin MLL FP FL 4.5 and Sfp PPTase inh -7%.
For CN(C)S(=O)(=O)c1ccc(C(=O)Oc2cc(=O)[nH]c3ccccc23)cc1 the results were TRPV1 potentiator 0, gsp agonist 5%, TRPML1 inh -20, gsp antag -1%, Menin MLL FP FL 6.7, ClpP mod -14% and Sfp PPTase inh 7%.
Screening O=C(O)c1ccccc1/C=N/Nc1nc(N2CCCCC2)nc(N2CCCCC2)n1 returned TRPV1 potentiator -7, Menin MLL FP FL 3.7 and Sfp PPTase inh 14%.
For C=CCC[C@@H](Cc1ccc(F)cc1)C(=O)OC[C@@H]1CCCN1C(=O)[C@@H](CC=C)CC(=O)N[C@@H](CO)Cc1ccccc1 the results were gsp agonist -20%, TRPML1 inh -15, gsp antag -17% and ClpP mod 1.2%.
CN(CCc1ccccc1)C(=O)c1ccc(NC(=O)Cc2cccc(NC(=O)C3CCN(C(=O)C4CC4)CC3)c2)cc1 was read as TRPML1 inh -9, gsp antag 6% and ClpP mod -3.7%.
`CN(CCc1ccccc1)C(=O)c1cccc(NC(=O)Cc2cccc(NC(=O)C3CCCN(C(=O)CCc4ccccc4)C3)c2)c1` (stereo not given) gave TRPML1 inh -4, gsp antag -26% and ClpP mod 1.1%.
`CN(CCc1ccccn1)C(=O)CCC1CCCN(C(=O)c2cccc(N(C)C)c2)C1` (stereo not given) gave TRPV1 potentiator 0, gsp agonist -19%, TRPML1 inh -12, gsp antag -6%, Menin MLL FP FL -4.7, ClpP mod -8.5% and Sfp PPTase inh 9%.
Cc1ccc(C)c(NC(=O)CN(C)C(=O)c2ccccn2)c1 was read as gsp agonist 21%, TRPML1 inh -8 and ClpP mod -1.0%.
`COc1ccc(-c2cc(C(=O)Nc3c(C)nn(Cc4ccccc4Cl)c3C)no2)cc1` gave TRPV1 potentiator 0, gsp agonist -9%, TRPML1 inh 0, gsp antag -6%, Menin MLL FP FL 1.8, ClpP mod -6.0% and Sfp PPTase inh 2%.
COc1ccccc1N1CCN(C2CCCN(C(=O)c3ccnc4ccc(C)cc34)C2)CC1 (stereo not given) was read as TRPV1 potentiator 22, gsp agonist -19%[15.4 µM], TRPML1 inh -3, gsp antag -10%, Menin MLL FP FL -4.2, ClpP mod -0.3% and Sfp PPTase inh 0%.
For CCc1c(O)nc(SCc2ccccc2)n(C(C)CC)c1=O (stereo not given) the results were TRPV1 potentiator -24, gsp agonist 52%, TRPML1 inh -3, gsp antag inconclusive, Menin MLL FP FL -1.2, ClpP mod 0.4% and Sfp PPTase inh -2%.
`O=S(=O)(CS(=O)(=O)c1ccccc1)c1ccccc1` gave gsp agonist -3%, TRPML1 inh -7 and gsp antag 17%.
O=[N+]([O-])c1cccc(C=NNc2ccc3ccccc3n2)c1O was read as gsp agonist 3%, TRPML1 inh 26, gsp antag -17% and ClpP mod 0.8%.
Cc1cc(C)n2cc(CSc3nncn3C)nc2n1 was read as TRPV1 potentiator 12, gsp agonist -7%[15.4 µM], TRPML1 inh 4, gsp antag 11%, Menin MLL FP FL -1.8 and Sfp PPTase inh -8%.

Screens as filed in PubChem.
